Screening data (PubChem)
TRPV1 potentiator: potentiators of human vanilloid receptor 1 (TRPV1). Q8NER1. TRPV1-expressing cells, Fluo-8 calcium influx, capsaicin EC20 potentiation; host cell line not named in the record; control for the full effect not named in the record. potentiation, % at 8.33 µM. 320,000 compounds, 0.02% hits. AID 540277; active means potentiation above 80%; inconclusive means 30% to 80%; inactive means below 30%; note: 0% is about no effect
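Fluo-8 calcium influx in TRPV1-expressing cells, kinetic read (ex 480/em 520 nm). Compound added and read 3 min for agonist activity, followed by capsaicin at EC20 final and 2 min further read for enhancement.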
D2 potentiator: positive allosteric modulators of human D2 dopamine receptor; P14416; 360,000 compounds, 0.23% hits; potentiation, % (test concentration not listed); DiscoveRx D2 beta-arrestin cells, luminescence, 90 min; 100% = 57 uM dopamine signal; AID 624464; active = potentiation of 50% or more; inconclusive = 30% to 50%; inactive = 30% or less;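 note: compound concentration not given in the record; tested on top of an EC20 dose of dopamine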
Target sequence (P14416 whole entry, looked up): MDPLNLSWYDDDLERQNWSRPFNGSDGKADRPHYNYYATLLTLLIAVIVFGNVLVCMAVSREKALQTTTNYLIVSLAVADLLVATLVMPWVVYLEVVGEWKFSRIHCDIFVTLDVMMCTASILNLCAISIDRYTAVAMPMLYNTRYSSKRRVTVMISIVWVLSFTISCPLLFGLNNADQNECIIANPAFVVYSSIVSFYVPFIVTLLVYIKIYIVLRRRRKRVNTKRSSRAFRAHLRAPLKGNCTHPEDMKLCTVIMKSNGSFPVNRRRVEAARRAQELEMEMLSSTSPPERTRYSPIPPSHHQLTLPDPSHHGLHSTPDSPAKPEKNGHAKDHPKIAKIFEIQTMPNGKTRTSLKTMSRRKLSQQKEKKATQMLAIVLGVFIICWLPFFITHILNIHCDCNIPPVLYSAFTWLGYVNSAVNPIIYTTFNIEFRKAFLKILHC
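PathHunter D2 cells, attached overnight at 37 deg C, received compound in DMSO plus dopamine at EC20 (50 nM final) for 90 min at 37 deg C. Beta-arrestin recruitment was read as luminescence after 1 h with detection reagent at ambient temperature.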
CtBP-E1A blk: blocks the CtBP interaction with E1A; AlphaScreen GST-E1A/His-CtBP binding, 1536-well; hits give low values; control for the full effect not named in the record; AID 651724; activity change, % (no concentration beside the values); 340,000 compounds, 0.49% hits; in the data active means activity change below about -65%; inconclusive means about -30% to -65%; inactive means above about -30%; note: % is set by controls: 0 for no effect and ±100 for the full control effect
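Homogeneous bead-based format: GST-tagged E1A captured on glutathione donor beads, His-tagged CtBP on nickel acceptor beads; compounds precede bead addition by 2 h at 37 °C.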
Six1-Eya2 inh: blocks human Six1 binding to Eya2 | AlphaScreen GST-Six1/His-Eya2 binding, biochemical; hits give low values; control for the full effect not named in the record | activity change, % (test concentration not listed) | AID 651725 | 360,000 compounds, 0.56% hits | Q15475+O00167; in the data active = activity change below about -65%; inconclusive = about -30% to -65%; inactive = above about -30%; note: % is set by controls: 0 for no effect and ±100 for the full control effect
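AlphaScreen with GST-Six1 and His-Eya2 (5X mix: 250 nM and 500 nM), glutathione donor and nickel acceptor beads; buffer 50 mM Tris pH 8.0, 300 mM NaCl, 1 mM TCEP; 1 h at 37 C in the dark.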
TRPML1 inh: inhibitors of human TRPML1 channel; Q9GZU1; TRPML1-inducible cells, Ca2+ dye fluorescence, FDSS; hits give low values; inhibition of EC80 agonist-evoked calcium signal; activity change, negative = inhibition, % (no concentration beside the values); 390,000 compounds, 0.02% hits; in the data active means activity change below about -50%; inconclusive means about -30% to -50%; inactive means above about -30%;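 note: stimulus is agonist 54-4 at its EC80 concentration; % is set by controls: 0 for no effect and ±100 for the full control effect; compound concentration not given in the record; the text of the record puts the active cut at -80%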
Target sequence (Q9GZU1 whole entry, looked up): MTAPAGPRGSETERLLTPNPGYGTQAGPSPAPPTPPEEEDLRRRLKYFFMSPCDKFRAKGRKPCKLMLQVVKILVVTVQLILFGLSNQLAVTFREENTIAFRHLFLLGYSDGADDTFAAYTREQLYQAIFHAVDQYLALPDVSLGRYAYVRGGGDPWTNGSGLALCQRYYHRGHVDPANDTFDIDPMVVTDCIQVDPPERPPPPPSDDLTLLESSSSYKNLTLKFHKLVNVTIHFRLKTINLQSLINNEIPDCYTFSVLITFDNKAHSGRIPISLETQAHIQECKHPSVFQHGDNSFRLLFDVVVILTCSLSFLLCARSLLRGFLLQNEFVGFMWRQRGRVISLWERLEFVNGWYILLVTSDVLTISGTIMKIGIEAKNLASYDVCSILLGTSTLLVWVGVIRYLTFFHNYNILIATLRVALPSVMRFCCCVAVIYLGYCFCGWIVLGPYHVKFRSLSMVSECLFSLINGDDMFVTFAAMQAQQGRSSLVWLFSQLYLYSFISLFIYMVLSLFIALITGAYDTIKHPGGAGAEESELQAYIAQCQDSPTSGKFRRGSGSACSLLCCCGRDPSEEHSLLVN
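Calcium fluorescence in TRPML1-DL cells induced overnight with Tet: a 110 s read after compound pin addition, then a 110 s antagonist read after challenge with 54-4 at 4 uM final (EC80).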
TRPML1 agonist: human mucolipin-1 channel agonism; activation, % (test concentration not listed); Q9GZU1; TRPML1-expressing cells, Ca2+ dye fluorescence, FDSS; host cell line not named in the record; reference of the full effect not given here; 410,000 compounds, 0.12% hits; in the data active = activation above about 50%; inconclusive = about 30% to 50%; inactive = below about 30%; note: 0% is about no effect; the text of the record puts the active cut at 80%
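Kinetic FDSS Ca2+ read in Tet-induced TRPML1-DL cells (ABD Ca8 dye plus quencher, 45-90 min RT loading): baseline, then compound, then 110 s agonist window; EC80 agonist 54-4 at 4uM final added afterwards for a 110 s antagonist window.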
* = called active by the depositor; ? = inconclusive; nt = not tested or not shown.

Every second line gives: TRPV1 potentiator, D2 potentiator, CtBP-E1A blk, Six1-Eya2 inh, TRPML1 inh, TRPML1 agonist
- CC(C)CCN(CCC(C)C)C(=O)Cc1c(O)c2ccccc2[nH]c1=O
  4, -10, nt, 0, -24, 0.2
- COc1ccc(COC(=O)NNC(=O)c2ccc(OC)cc2)cc1
  -24, -6, -25, -7, -18, 0.3
- O=C(O)c1ccc(-n2nnnc2SCc2ccccc2)cc1
  5, 1, 0, 4, 1, -0.4
- CCOc1ccc2[nH]c3c(N4CCC5(CC4)OCCO5)ncnc3c2c1
  nt, -1, -2, -24, -11, 0.5
- C=CCc1ccccc1OCC(O)CNC(C)C (stereo not drawn)
  8, -22, -15, 8, -9, 0.4
- O=C(c1cc(Cl)cc(Cl)c1)N1CCC2CC1c1cc(N3CCCCC3)ccc12 (stereo not drawn)
  nt, -1, -6, -25, -3, 0.4
- CCSC1=C(C#N)C(c2ccc(OC)c(OC)c2)CC(=O)N1 (stereo not drawn)
  -13, -4, -3, 2, -11, 0.1
- COc1ccc(C2NC(=O)C(C#N)=C(S)N2c2ccc(C)cc2)cc1OC (stereo not drawn)
  3, -10, -5, 4, 3, 1.6
- CC(Sc1nnnn1-c1cccc(F)c1)C(=O)NC1CCCC1 (stereo not drawn)
  -3, -7, 6, 6, -19, -0.4
- CCn1nnnc1SCC(=O)Nc1ccc(F)cc1
  16, -3, -13, 0, -5, 0.9
- CCOC(=O)[C@H]1[C@H]2COc3ccccc3[C@@H]2N2C(=O)c3cc(Br)ccc3NC(=O)[C@@]12C
  24, -9, nt, -3, -23, 0.5
- CCCCN(CCCC)Cc1cc2ccccc2c2c1COC2
  4, -24, 12, 22, 4, 2.4
- CCCCN(C(=O)c1ccc(C)c(S(=O)(=O)N2CCOCC2)c1)c1c(N)n(CCCC)c(=O)[nH]c1=O
  -9, -20, 16, -1, -14, -0.5
- CCCCCCOc1ccc(-c2ccc(C#N)cn2)cc1
  0, 7, 4, 23, 19, 2.6
- COc1ccc(N2CCN(CCOc3ccc4c(C)cc(=O)oc4c3)CC2)cc1
  13, -42, -3, 2, -17, 1.3
- COc1ccccc1N1CCN(C(=O)c2ccc3[nH]c4c(c3c2)CCCC4)CC1
  -23, -14, -26, -30, -7, 0.0
- Cc1cc2nc(SCC(=O)Nc3ccccc3C(=O)O)[nH]c2cc1C
  20, -11, 21, -8, 3, 3.9
- COc1ccc2oc(C(=O)OCC(=O)NCc3ccco3)c(C)c2c1
  10, -8, -4, -5, 12, 1.5
- CCOC(=O)Cc1cnc(N)s1
  3, -1, 6, -4, -5, -0.3
- O=C(N/N=C/c1ccncc1)NC12CC3CC(CC(C3)C1)C2
  -2, -16, -3, 0, 5, 5.1
- COc1ccc(NC(=O)c2ccc([N+](=O)[O-])o2)cc1
  -19, 5, 3, 0, -10, -0.7
- O=C1CSC2(N1)C1CC3CC(C1)CC2C3 (stereo not drawn)
  5, -29, -21, 10, 5, 0.0
- CCN(C(=O)c1cc2c(=O)[nH]c3ccc(C)cc3c2s1)c1ccccc1C
  -22, 0, 4, 4, 7, 1.4
- OCCOC1CCCc2oc(-c3ccccc3)c(C#CC3(O)CCCCC3)c21 (stereo not drawn)
  nt, nt, -4, -9, nt, -0.5
- CC(=O)OCCCN1c2ccccc2Nc2nnc(-c3ccccc3)cc21
  14, 7, -2, 1, 23, 0.6
- CC(=O)NS(=O)(=O)c1ccc(Nc2ccc([N+](=O)[O-])c3nonc23)cc1
  -7, -33, nt, -8, -5, 0.1
- Cc1ccc(-c2ccc(=O)n(CCC(=O)NCCN3CCCCC3C)n2)cc1 (stereo not drawn)
  -2, -18, 7, 3, 17, -0.6
- C#CCOCCOCCOCCNc1nc(N2CCN(C(=O)C([C@@H](C)CC)n3cc(C(N)Cc4ccc(O)cc4)nn3)CC2)nc(N2CCN(C(=O)[C@H](CCC(=O)O)n3cc(C(N)CO)nn3)CC2)n1 (stereo partly drawn)
  16, -4, -13, -11, -6, -0.5
- CCOC(=O)c1ccc(S(=O)(=O)N2CCN(C(=O)c3ccccn3)CC2)cc1
  nt, 2, 2, 6, 1, -0.6
- CC(=O)N1c2ccc(S(=O)(=O)NCCC(=O)N3CCCC(C)C3)cc2CC1C (stereo not drawn)
  -1, -1, 0, 0, -11, 0.3

Of the compounds above, three contain a COOH group:
Every second line gives: TRPV1 potentiator, D2 potentiator, CtBP-E1A blk, Six1-Eya2 inh, TRPML1 inh, TRPML1 agonist
- O=C(O)c1ccc(-n2nnnc2SCc2ccccc2)cc1
  5, 1, 0, 4, 1, -0.4
- Cc1cc2nc(SCC(=O)Nc3ccccc3C(=O)O)[nH]c2cc1C
  20, -11, 21, -8, 3, 3.9
- C#CCOCCOCCOCCNc1nc(N2CCN(C(=O)C([C@@H](C)CC)n3cc(C(N)Cc4ccc(O)cc4)nn3)CC2)nc(N2CCN(C(=O)[C@H](CCC(=O)O)n3cc(C(N)CO)nn3)CC2)n1 (stereo partly drawn)
  16, -4, -13, -11, -6, -0.5

(next part)
Every second line gives: TRPV1 potentiator, D2 potentiator, CtBP-E1A blk, Six1-Eya2 inh, TRPML1 inh, TRPML1 agonist
- Cc1ccc(C(O)c2ncc(-c3ccc4ccccc4c3)[nH]2)cc1F (stereo not drawn)
  nt, -9, -23, ?, nt, -0.1
- Cc1ccc(S(=O)(=O)N2CCCC(C(=O)Nc3cccnc3)C2)cc1 (stereo not drawn)
  -16, -20, -5, 1, 8, 0.5
- Fc1ccc(Br)cc1SCCc1ccncc1
  5, -9, 11, 8, 13, -0.7
- O=C(NCCNCc1cccc(Cl)c1)c1ccco1
  nt, -5, -12, -10, 12, -0.4
- CN(C)c1ccc(-c2cccc3nccn23)cc1
  nt, -10, 0, -12, nt, -0.8
- O=C(NNC(=S)NCc1ccco1)c1ccccc1Br
  9, -11, 1, 0, 5, 0.8
- Cc1c(Cl)c(=O)oc2cc(OCC(=O)N3CCCC(C)C3)ccc12 (stereo not drawn)
  nt, -32, 6, -5, 60, -0.2
- CCc1ccc(NC(=O)CSC2=C(C#N)C(c3ccco3)C3=C(CCCC3=O)N2)cc1 (stereo not drawn)
  3, -32, -6, -13, 0, -0.1
- Cc1cc(C(=O)COC(=O)c2cnccn2)c(C)n1-c1ccc(Br)cc1
  nt, 1, -8, -8, 20, 0.7
- CCOc1cccc(C2/C(=C(/O)c3ccc4c(c3)CC(C)O4)C(=O)C(=O)N2Cc2cccnc2)c1 (stereo not drawn)
  4, -9, 8, 8, 6, 1.4
- Cc1ccc(S(=O)(=O)N2CCOCC2)cc1NC(=O)CN1CCN(C)CC1
  -3, 4, -1, 2, -9, 0.5
- Cc1ccc(NC(=S)NCc2ccc3c(c2)OCO3)cc1
  -30, -2, -5, -14, 20, -0.3
- CC(=O)N1C(C(=O)O)CSC1c1cccc(C)c1 (stereo not drawn)
  1, -3, -2, 11, 7, -0.3
- NS(=O)(=O)c1ccc(CNC(=S)NC2CC2)cc1
  7, -3, 0, -1, -8, -0.6
- CCOc1ccc(CN(C)C(=O)[C@H](Cc2ccccc2)NC(=O)OCc2ccccc2)cc1OC
  -8, 5, -14, 0, 26, 0.6
- COc1ccc(S(=O)(=O)N(Cc2ccccc2)c2ccccc2C(=O)N2CCOCC2)cc1
  -1, -10, -4, 1, -9, -0.6
- OCC1(Cc2cccc(Cl)c2)CCCN(Cc2cn[nH]c2C2CCCCC2)C1 (stereo not drawn)
  -14, -17, nt, -17, 2, 0.0
- COc1ccccc1C(=O)Nc1ccc(Br)cc1C
  -2, -11, 0, 25, 37, 0.8
- Nc1cc(N)nc(SCCc2ccccc2)n1
  -32, 1, -10, 10, -9, -0.7
- CC(OC(=O)c1cccc(S(=O)(=O)N2CCCCC2)c1)C(=O)NCC1CCCCC1 (stereo not drawn)
  -2, -2, -1, 5, 9, 2.3
- Cc1nnsc1NC(=O)OCC(C)(C)C
  -12, -5, -1, 16, -1, 0.9
- COc1cc(C(=O)OC2CSCC2NC(=O)c2ccccc2)cc(OC)c1OC (stereo not drawn)
  -3, 1, nt, -1, 14, 1.6
- CC(=O)n1cc([C@H]2C=C(C(=O)N3CCOCC3)O[C@@H](OCc3ccc(CO)cc3)C2)c2ccccc21
  ?, 13, nt, 4, 22, -0.1
- Cc1ccc(N/C=C(\[N+](=O)[O-])S(=O)(=O)c2ccccc2)cc1
  1, -12, 22, 6, -6, 0.5
- COc1ccc(NC(=O)CN(c2c(C)cccc2C)S(C)(=O)=O)cc1
  -3, -24, nt, -4, 18, -0.7
- Cc1ccc(F)cc1CNC(=O)C1CCC(=O)N(CCc2ccccc2)C1 (stereo not drawn)
  10, -6, 5, 4, -13, -0.7
- CC(C)Oc1ccc(C2CC(=O)N(Nc3ccc([N+](=O)[O-])cc3[N+](=O)[O-])C2=O)cc1 (stereo not drawn)
  12, -18, -3, -7, 13, 2.5
- CCOC(=O)/C(N=Nc1c(Br)cc(Br)cc1Br)=C(\C)O
  -2, -8, -2, 3, 6, 3.2
- CCn1c(=O)cc(OCC(=O)NCCCN2CCC(C)CC2)c2ccccc21
  -17, -27, 1, 2, -4, -0.1
- CCOc1ccccc1CNC(=O)CCN1C(=O)COc2ccccc21
  5, -4, -2, 5, -6, 0.0

Part of the list above in order of SMILES length, highest first:
Every second line gives: TRPV1 potentiator, D2 potentiator, CtBP-E1A blk, Six1-Eya2 inh, TRPML1 inh, TRPML1 agonist
- COc1ccc(S(=O)(=O)N(Cc2ccccc2)c2ccccc2C(=O)N2CCOCC2)cc1
  -1, -10, -4, 1, -9, -0.6
- NS(=O)(=O)c1ccc(CNC(=S)NC2CC2)cc1
  7, -3, 0, -1, -8, -0.6
- Fc1ccc(Br)cc1SCCc1ccncc1
  5, -9, 11, 8, 13, -0.7

Next records:
Every second line gives: TRPV1 potentiator, D2 potentiator, CtBP-E1A blk, Six1-Eya2 inh, TRPML1 inh, TRPML1 agonist
- Cc1cc(C)c(C)c(S(=O)(=O)Nc2ccccc2N2CCOCC2)c1C
  nt, -4, 0, 1, 7, 9.9
- CCOC(=O)Cn1c(=O)n(Cc2ccccc2)c(=O)c2cccnc21
  19, -13, 1, 8, nt, nt
- COc1cccc(N2CCN(C3C4CC5CC(C4)CC3C5)CC2)c1 (stereo not drawn)
  -8, -32, -11, -13, 6, -0.2
- Cc1oc(-c2ccccc2F)nc1CN1CCC(C(=O)NCc2ccco2)CC1
  -7, 13, -1, -3, -15, -0.7
- C=CCN(CC(=O)NCC1CCCO1)C(=O)CCC(=O)Nc1cc(C)on1 (stereo not drawn)
  2, -14, 13, 6, 9, 0.1
- CCOC(=O)N1CCN(C(=O)C(c2ccccc2)c2ccccc2)CC1
  nt, 1, 0, 4, -6, 0.2
- Cc1cc(SCc2ccc([N+](=O)[O-])cc2)nc(=O)[nH]1
  1, -4, nt, -16, -8, 0.5
- CCc1ccc2[nH]c(=O)c(CN(CCN(CC)CC)C(=O)Nc3ccccc3OC)cc2c1
  -12, -17, -5, 0, -14, 0.8
